Bioassay records as filed in PubChem.
Ecoli growth: blocks Escherichia coli growth. OD600, 23 h; active compounds read low. OD600 absorbance (no concentration beside the values). 330,000 compounds, 0.21% hits. AID 1053175;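 active = OD600 absorbance below the run mean of sample wells minus 3.6 SD, in any replicate, cut at about 0.56 in these data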;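 note: stock transfer was 300 nL into about 60 µL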
UCH37 inh: inhibitors of human deubiquitinating enzyme UCH37; purified proteasome/UCH37, Ub-AMC cleavage fluorescence; inhibition, % (no concentration beside the values); 330,000 compounds, 0.33% hits; Q9Y5K5; AID 588478;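 active = mean of two replicates above 20%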;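 note: 0% = compound-free wells with enzyme and 100% = wells lacking proteasome; stock transfer was 100 nL into about 20 µL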
Target sequence (Q9Y5K5 whole entry, looked up): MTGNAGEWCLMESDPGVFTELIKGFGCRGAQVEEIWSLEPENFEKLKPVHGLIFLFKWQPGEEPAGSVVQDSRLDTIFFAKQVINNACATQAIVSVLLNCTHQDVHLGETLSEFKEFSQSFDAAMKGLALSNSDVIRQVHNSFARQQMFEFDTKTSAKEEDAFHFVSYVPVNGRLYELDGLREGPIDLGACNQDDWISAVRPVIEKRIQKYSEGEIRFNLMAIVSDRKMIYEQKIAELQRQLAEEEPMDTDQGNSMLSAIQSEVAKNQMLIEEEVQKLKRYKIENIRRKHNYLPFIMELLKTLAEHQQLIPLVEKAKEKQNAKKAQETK
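Material: human UCH37 enzyme supplied as purified proteasome complex. Measure: % inhibition of Ub-AMC cleavage fluorescence. Medium: pH 7.4 Tris-HCl (50 mM) with ovalbumin, ATP-MgCl2, DTT. Times: 30 min preincubation with enzyme, 25 min cleavage at room temperature. Detection: AMC fluorescence intensity at 355/460 nm.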
Active calls of the source: *; i = inactive. These rows are one share of the data (hit frequency here may not be typical).

Value order – Ecoli growth, UCH37 inh
COc1ccc(C=NNC(=O)c2ccc(Cn3cc([N+](=O)[O-])cn3)o2)cc1O
 : 0.781, 12.9
CN/S(=N\S(=O)(=O)c1ccccc1)c1ccc(C)cc1 (centres undefined)
 : 0.74, 2.2
Cc1ccc2nc(C)c(C(=O)NN=Cc3ccc(C(=O)O)cc3)cc2c1
 : 0.679, 7.5
Cc1ccc(-c2[nH]ncc2C=Nn2c(COc3ccccc3C)nc3ccccc3c2=O)cc1
 : 0.676, 2.4
CCOC(=O)C(=NNc1cc(C(F)(F)F)ccc1Cl)N(CC)CC
 : 0.67, 1.1
Cc1ccc(S(=O)(=O)c2c(N)n(N=Cc3ccco3)c3nc4ccccc4nc23)cc1C
 : 0.743, -36.1
Cc1[nH]c2ccccc2c1C=NNC(=O)CNC(=O)Cc1ccccc1
 : 0.657, 3.5
COc1ccc(C(=O)NN=Cc2ccc(OC)c(CN3CCCc4ccccc43)c2)cc1
 : 0.733, 2.4
CC(=NNC(=S)Nc1cccc(C)c1)c1cccc([N+](=O)[O-])c1
 : 0.715, -0.8
CCOc1ccc(C=NO)cc1
 : 0.661, -0.3
CC(=NNC(=O)c1ccccn1)c1ccco1
 : 0.692, 7.8
COc1ccc(C=NNc2ncc(-c3ccccc3)cn2)c(OC)c1
 : 0.656, 0.8
CC(=NNC(=O)OC(C)(C)C)c1cccc([N+](=O)[O-])c1
 : 0.613, 3.2
CC(CC(=O)Nc1ccccn1)=NNC(=O)C(=O)Nc1ccccc1C
 : 0.734, 1.2
Cc1ccc(NCC(=O)NN=Cc2ccc([N+](=O)[O-])o2)cc1
 : 0.564, 10.8

Next compounds follow:
Value order – Ecoli growth, UCH37 inh
O=C(NN=Cc1ccc[nH]1)c1cc(-c2cccs2)nc2ccccc12
 : 0.633, -5.2
N#CCC(=O)NN=Cc1ccc(OS(=O)(=O)c2ccccc2)cc1
 : 0.729, 0.6
CC(=NNC(=O)c1nn(C)cc1Br)c1ccc(NC(=O)c2ccncc2)cc1
 : 0.649, 1.3
CCN(CC)CCn1c(N=Cc2cc(Br)ccc2O)nc2ccccc21
 : 0.623, -1.6
Cc1cccc(C=Nn2c(C)nnc2C)c1
 : 0.773, 5.0
Cc1ccc(C=N/N=C2/NC(=O)C(CC(=O)Nc3ccccc3)S2)o1 (centres undefined)
 : 0.696, 5.5
COc1ccc(CC(O)=C(C#N)c2nc3ccccc3[nH]2)cc1OC
 : 0.816, 3.3
Cc1ccc(C=NNC(=O)CNC(=O)Cc2ccccc2)o1
 : 0.675, 3.4
CC(=NNC(=O)CNC(=O)c1ccncc1)c1ccc(C)cc1
 : 0.674, 3.0
CC(=NNC(=O)Cc1cccn1C)c1ccco1
 : 0.7, 0.5
CCCCOC(=O)NN=C/C=C/c1ccccc1
 : 0.676, 2.5
Cc1ccc(-c2n[nH]c(=S)n2N=C/C=C/c2ccccc2[N+](=O)[O-])cc1
 : 0.704, 7.2
Cc1ccsc1C=NNC(=O)CNC(=O)c1c(F)cccc1Cl
 : 0.692, 5.7
COc1ccc(CC(C)=NNC(=S)Nc2ccc(Cl)cc2)cc1
 : 0.665, 0.6
O=C(C[n+]1cccc(C=NO)c1)N1CCCCCC1
 : 0.674, 1.3

Other results.
Value order – Ecoli growth, UCH37 inh
FC(F)Oc1ccccc1C=NNc1nc2ccccc2o1
 : 0.654, 1.5
COc1cc(C=NN2CCCCC2)cc(OC)c1O
 : 0.681, 6.8
NC(=NOCC(=O)Nc1ccccc1)c1nonc1N
 : 0.676, 1.2
O=C1C(=NO)Cc2ccccc21
 : 0.658, 2.7
NC(COc1cccc(Cl)c1)=NO
 : 0.638, 2.9
CC(=NNS(=O)(=O)c1ccc(Br)cc1)c1c[nH]c2ccccc12
 : 0.644, 1.2
COc1cccc(C=Nn2cnc3ccccc32)c1OC
 : 0.684, -6.4
CCn1nc(C)c(C=NNC(=O)c2ccoc2C)c1C
 : 0.754, 4.1
Cc1cc(C)nc(N=C(N)Nc2cccc(OCc3ccccc3)c2)n1
 : 0.617, 1.1
C(=NNc1nc2ccccc2s1)c1ccccn1
 : 0.598, 1.9
CC(CC(=O)Nc1cccc(Cl)c1Cl)=NNC(=O)c1ccccc1Br
 : 0.722, 1.5
CC(CC(=O)NCc1ccco1)=NNC(=O)Cc1cccc2ccccc12
 : 0.743, -4.6
CC(Cn1cnc([N+](=O)[O-])n1)=NNC(=O)c1ccc(F)cc1
 : 0.725, 0.8
COCc1c(C)cc(C)c(C=NO)c1C
 : 0.712, 3.5
O=[N+]([O-])c1ccc(O)c(C=Nn2c(CO)nc3ccccc32)c1
 : 0.681, 9.0

Given bar-delimited: 4 of the compounds above
structure | Ecoli growth | UCH37 inh
Cc1ccc(NCC(=O)NN=Cc2ccc([N+](=O)[O-])o2)cc1 | 0.564 | 10.8
CC(=NNC(=O)Cc1cccn1C)c1ccco1 | 0.7 | 0.5
COc1ccc(C=NNc2ncc(-c3ccccc3)cn2)c(OC)c1 | 0.656 | 0.8
O=[N+]([O-])c1ccc(O)c(C=Nn2c(CO)nc3ccccc32)c1 | 0.681 | 9.0

Next part.
Value order – Ecoli growth, UCH37 inh
CON=CC(c1ncc(C(F)(F)F)cc1Cl)S(=O)(=O)c1ccccc1 (centres undefined)
 : 0.704, 4.4
COc1ccc(C=NNc2ccc([N+](=O)[O-])cc2[N+](=O)[O-])c(C(=O)O)c1OC
 : 0.644, 16.2
COc1ccc(-c2cc(C(=O)NN=Cc3cccnc3)c3cc(C)cc(C)c3n2)cc1
 : 0.684, i
Cc1nn(-c2ccccc2)c(Cl)c1C=NNC(=O)c1cnccn1
 : 0.677, -8.9
CC(=NNC(=O)CSc1nc(C)cc(C)n1)c1cccs1
 : 0.669, -0.1
CC(=NNC(=O)c1nnn(-c2nonc2N)c1CSc1ccc(Cl)cc1)c1ccco1
 : 0.677, 0.1
COc1cc(C(=O)NCC(=O)NN=Cc2ccc(OC(=O)c3ccco3)cc2)cc(OC)c1OC
 : 0.643, 0.4
CC(=NOCC(=O)Nc1ccc(C)cc1C)c1cccs1
 : 0.771, 4.7
CC(C)(C=NO)N(O)C=C1C=CC(=O)C=C1
 : 0.718, 2.8
COc1cc(C=NNC(=O)C(=O)N2CCCC2)ccc1O
 : 0.669, 10.4
Fc1ccc(C=NNc2ccccn2)cc1
 : 0.684, 6.0
COc1cc(C=NNC(=O)c2ccncc2)ccc1OC(C)=O
 : 0.654, 7.1
O=C(CNC(=O)c1ccccc1F)NN=Cc1ccc2c(c1)OCO2
 : 0.699, 1.4
O=C(NN=Cc1c[nH]c2ccccc12)c1ccn(Cc2ccc(Cl)cc2)n1
 : 0.727, -3.0
N#Cc1ccc(NN=Cc2cn(-c3ccccc3)nc2-c2ccccc2)c([N+](=O)[O-])c1
 : 0.734, 12.9

Further compounds follow.
Value order – Ecoli growth, UCH37 inh
CC1=NNC(=O)C1CCC(=O)NN=Cc1c(Cl)cccc1Cl (centres undefined)
 : 0.659, 2.1
CN(C)C=Nc1ncc(C(=O)c2ccc(Cl)cc2)s1
 : 0.658, 6.7
O=C(Oc1ccc(C=NNC(=O)c2ccco2)cc1)c1ccccc1
 : 0.658, 2.9
CC1CCN(Cc2c(C(=O)NN=Cc3cccc(C(F)(F)F)c3)nnn2-c2nonc2N)CC1
 : 0.655, 1.6
CC1=NNC(=O)C1CCC(=O)NN=Cc1ccc(Cl)cc1Cl (centres undefined)
 : 0.648, 5.5
Cc1cc(C)n2nc(/C(C#N)=C/c3ccccc3)c(C#N)c2n1
 : 0.681, -48.5
O=C(CCCCCNC(=O)c1ccccc1)NN=Cc1ccc(F)cc1
 : 0.658, 4.0
CCOC(=O)C1=C(C)n2c(sc(=C3C(=O)Nc4ccccc43)c2=O)=NC1c1ccc(OC)cc1 (centres undefined)
 : 0.749, 2.1
O=C(NN=Cc1c[nH]c2ccccc12)c1ccccc1O
 : 0.608, -10.1
NC(=NO)C1COc2ccccc2O1 (centres undefined)
 : 0.657, 2.1
O=C1NC2(CCCCC2)C(=O)N1N=Cc1ccc(O)cc1O
 : 0.729, -2.2
CCOc1ccc(-c2c(C(=O)NN=Cc3cccs3)nnn2-c2nonc2N)cc1
 : 0.678, 5.6
O=C(NN=Cc1sc(N2CCOCC2)nc1-c1ccccc1)c1ccccc1Cl
 : 0.613, -23.0
Oc1ccc(C=NNC(=S)NN=Cc2ccc(O)cc2)cc1
 : 0.689, 12.9
ON=C(Cc1cscn1)c1ccc(O)cc1O
 : 0.624, 1.3

Additional compounds:
Value order – Ecoli growth, UCH37 inh
CCC(=NOC(=O)c1ccc(OC(C)C)cc1)c1ccc(C)cc1
 : 0.722, -1.9
CCCC(=NNC(=O)c1cccc(Cl)c1)c1ccccc1
 : 0.723, 4.9
CC(CC(=O)Nc1ccc2c(c1)OCCO2)=NNC(=O)COc1ccccc1C
 : 0.66, -0.1
O=C(NN=CC1=Cc2ccccc2OC1)c1ccncc1
 : 0.725, -111.7
CC(=NNc1ncc(C(F)(F)F)cc1Cl)c1ccncc1
 : 0.651, 8.9
CN1CCc2c(sc(N=Cc3cc(Cl)ccc3O)c2C#N)C1
 : 0.63, 0.4
CN(C)CCON=C(c1ccc(Br)cc1)c1cccnc1
 : 0.702, 6.2
CC(=NNC(=O)CC1(C)OCCO1)c1cccs1
 : 0.677, 4.9
COc1ccc(C(=O)C[n+]2ccccc2C=NO)cc1
 : 0.698, 3.7
COc1ccc(CCN2C(=O)CSC2=NNC(=O)c2cccs2)cc1OC
 : 0.705, -0.1
CNC(=S)NN=Cc1ccc(-c2cc([N+](=O)[O-])ccc2Cl)o1
 : 0.705, 5.6
CCC(=O)Nc1ccc(C(=O)NN=Cc2ccccc2[N+](=O)[O-])cc1
 : 0.75, 3.0
CC(=NNC(=O)c1ccc2c(c1)OCO2)c1ccc(NC(=O)c2ccc(F)cc2)cc1
 : 0.736, -6.1
CN(C)C=Nc1ncc(C(=O)c2ccc(-c3ccccc3)cc2)s1
 : 0.685, -7.9
Cc1nc2ccccc2c(=O)n1N=Cc1ccc(N(C)C)cc1
 : 0.704, 8.9

One compound at a time, as listed above.
O=C(C[n+]1cccc(C=NO)c1)N1CCCCCC1 is listed as Ecoli growth = 0.674; UCH37 inh = 1.3
O=C(NN=Cc1c[nH]c2ccccc12)c1ccn(Cc2ccc(Cl)cc2)n1 is listed as Ecoli growth = 0.727; UCH37 inh = -3.0

The list continues.
Value order – Ecoli growth, UCH37 inh
Cc1ccc(-c2c(C(=O)NN=Cc3cccc(Cl)c3)nnn2-c2nonc2N)cc1
 : 0.743, 3.2
O=C(Cc1ccccc1)NN=Cc1ccccc1Cl
 : 0.637, 1.4
Cn1cccc1C=Nn1c(-c2ccc(Cl)cc2)n[nH]c1=S
 : 0.8, 0.9
O=C(CC1SC(=O)NC1=O)Oc1ccc(C=NNC(=O)c2ccccc2O)cc1 (centres undefined)
 : 0.654, 6.5
O=C(O)CC1SC(=NN=C2C(=O)Nc3ccccc32)N(c2ccc(O)cc2)C1=O (centres undefined)
 : 0.675, 11.2
Cc1ccc(NC(=O)C(=O)NCc2ccc(C=NNC(=O)c3c(C)nc4ccccn34)o2)cc1
 : 0.66, 9.7
COc1ccc(C=NNS(=O)(=O)c2ccc(C)cc2)cc1OC(=O)c1ccccc1
 : 0.814, 4.1
COc1ccc(CC(=O)NN=C/C=C/c2cccc([N+](=O)[O-])c2)cc1OC
 : 0.617, 6.4
Cc1[nH]c2ccccc2c1C=NNc1cccc(C(=O)O)c1
 : 0.67, -2.3
C=CCc1cc(C=NNC(=O)CSc2nnc(CCCc3ccc(OC)c(C)c3)o2)cc(OC)c1O
 : 0.733, 2.7
C/C(C=NNC(=O)c1nn(C)c(C)c1Br)=C\c1ccccc1
 : 0.643, 3.7
COc1ccc(-c2n[nH]c(=S)n2N=Cc2cccn2C)cc1
 : 0.66, 5.6
CSc1ccc(C=Nn2c(COc3ccccc3)n[nH]c2=S)cc1
 : 0.691, 3.4
CC(=NOC(=O)c1ccc(F)cc1)c1ccc(C)cc1
 : 0.683, -0.8
NC(N)=NN=Cc1ccc(OCc2ccccc2)c(OCc2ccccc2)c1
 : 0.069*, 2.0

(continued)
Value order – Ecoli growth, UCH37 inh
CCOc1ccc(-c2c(C(=O)NN=Cc3ccc(OC)cc3)nnn2-c2nonc2N)cc1
 : 0.699, -0.5
COc1ccc(C=NNC(=O)CN2CCS(=O)(=O)CC2)cc1
 : 0.8, 5.6
COc1cc(C=NNC(=O)c2ccc(O)cc2)ccc1OCC(=O)N1CC(C)OC(C)C1 (centres undefined)
 : 0.683, 5.4
Cc1ccc(NC(=O)C2Cc3ccccc3OC2=NO)cc1C (centres undefined)
 : 0.7, 2.9
CC(=O)Nc1sc(NN=Cc2ccccc2Cl)nc1-c1cccs1
 : 0.711, -34.7
O=C(NN=Cc1ccccn1)c1cc(C2CC2)[nH]n1
 : 0.735, -9.1
COc1ccc(C=NNC(=O)CN2CCN(Cc3ccccc3)CC2)cc1Br
 : 0.702, 4.0
CC(=NOCC(=O)Nc1ccccc1C(=O)O)c1cccs1
 : 0.666, 4.1
CC(=NNc1nncc2ccccc12)c1cccc(OC(F)F)c1
 : 0.684, 0.5
Cn1c(=O)c2c(nc(NN=Cc3ccc(OC(=O)c4ccco4)cc3)n2Cc2ccccc2)n(C)c1=O
 : 0.713, -72.1
CN1CCN(C(=NS(=O)(=O)c2ccc(F)cc2)c2ccccc2)CC1
 : 0.774, 2.2
